Shh pathway inh: blocks Sonic Hedgehog signaling. Shh-LIGHT2 Gli-luciferase reporter, 30 h. inhibition, % (no concentration beside the values). actives 2.1% (n = 22,000). AID 2313;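 active means replicate mean of 65% or more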;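 further: pathway switched on by Shh-conditioned medium diluted 1 in 25 in low serum; 100 nL library stock added to about 40 µL; 0% = median of neutral wells and 100% = positive control level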
YB-1 expr inh: YB-1 expression inhibition; U2OS, qRT-PCR YB-1 vs CDIP delta delta Cp, 16 h; active compounds read high; zero = DMSO, each unit about twofold; delta delta Cp (YB-1 minus CDIP) (no concentration beside the values); actives 0.37% (n = 30,000);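 active means delta delta Cp rounded down to an integer at or above 3, about 3 SD of DMSO wells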;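 further: higher means less YB-1 transcript or more CDIP transcript relative to DMSO; stock transfer was 100 nL into about 100 µL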
PD-1 reversal: reversal of PD-1 mediated T-cell inhibition | primary human CD4 T cells, PD-L1 beads, CellTiter-Glo 96 h | 29,000 tested, under 10 active | AID 2316 | activation, % (no concentration beside the values);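 active means replicate mean of 50% or more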;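 further: 0% = median vehicle wells and 100% = positive control; 100 nL library stock added to about 50 µL; numbers are from one replicate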
MITF inh: MITF inhibition. AID 2240. actives 0.28% (n = 37,000). TRPM1 promoter luciferase, luminescence, 24 h. inhibition, % (no concentration beside the values);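 active means most replicates at 85% or more, or half of them and the mean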;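 further: human melanocyte line stably carrying TRPM1 promoter luciferase reporter; 0% = vehicle wells and 100% = a positive control; the first replicate is given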
* = called active by the depositor; . = not tested or not shown.

SMILES	Shh pathway inh	YB-1 expr inh	PD-1 reversal	MITF inh
CC(C)NC(=O)N(C)C[C@H]1Oc2ccc(NC(=O)C3CC3)cc2CC(=O)N([C@H](C)CO)C[C@H]1C	-21	0.033	0.7	2
C[C@@H]1CN([C@@H](C)CO)C(=O)c2cc(NC(=O)CCCCCC(=O)Nc3ccccc3N)ccc2O[C@@H]1CN(C)S(=O)(=O)c1cn(C)cn1	.	0.1	1.3	-6
C[C@H](CO)N1C[C@H](C)[C@H](CN(C)C(=O)Nc2ccc(C(F)(F)F)cc2)Oc2ccc(NS(=O)(=O)c3cccs3)cc2C1=O	.	0.42	-0.6	9
COC(=O)c1ccc(Cl)c(NC(=O)C(C)N(c2ccc(C)cc2)S(C)(=O)=O)c1 (stereo unspecified)	.	.	-2.3	18
C[C@@H]1CN([C@H](C)CO)C(=O)c2cccc(NC(=O)CCCCCC(=O)Nc3ccccc3N)c2O[C@@H]1CN(C)S(=O)(=O)c1ccc(Cl)cc1	.	0.24	1.5	21
Cc1cc(C(=O)Nc2cccc3c2O[C@H](CN(C)Cc2ccncc2)[C@H](C)CN([C@H](C)CO)C3=O)n(C)n1	-48	-0.65	1.2	-9
CC(=O)Oc1ccccc1C(=O)Oc1ccccc1C(=O)O	31	0.065	0.2	6
OC(COc1ccc(Nc2ccccc2)cc1)COc1ccc(Nc2ccccc2)cc1	53	-0.006	2.8	4
Cc1noc(C)c1NC(=O)Nc1cccc2c1O[C@@H](CN(C)S(=O)(=O)c1cn(C)cn1)[C@H](C)CN([C@@H](C)CO)C2=O	-19	0.14	3.2	11
Cc1noc(C)c1S(=O)(=O)Nc1cccc2c1O[C@@H](CN(C)Cc1ccccc1)[C@@H](C)CN([C@H](C)CO)C2=O	7	0.53	1.3	-4
C[C@@H]1CN([C@@H](C)CO)C(=O)c2cc(NC(=O)C3CC3)ccc2O[C@@H]1CN(C)Cc1ccc(C(=O)Nc2ccccc2N)cc1	.	0.3	-1.9	-12
C[C@@H]1CN([C@@H](C)CO)C(=O)c2cccc(NC(=O)C3CCCCC3)c2O[C@@H]1CN(C)S(=O)(=O)c1cn(C)cn1	35	-0.13	0.8	-3
O=C(COc1ccccc1Cl)Nc1cccc(-c2nc3ncccc3o2)c1	.	.	-0.2	-44
C[C@@H]1CN([C@H](C)CO)C(=O)c2cc(NC(=O)CCCN(C)C)ccc2O[C@H]1CN(C)C(=O)NC1CCCCC1	-27	-0.17	0.9	7
CC1CC2(CC(C)(C(=O)CSc3n[nH]c(-c4ccccc4Cl)n3)OC2=O)C(=O)O1 (stereo unspecified)	.	.	1.6	-3
Cc1cc[n+](Cc2ccccn2)c(N)c1	-26	-0.038	0.9	0
C[C@@H]1CN([C@@H](C)CO)C(=O)c2cc(NC(=O)Cc3ccccc3)ccc2O[C@@H]1CN(C)C(=O)Nc1ccc(F)cc1	-5	-0.37	-1.2	-18
C[C@H](CO)N1C[C@H](C)[C@@H](CN(C)S(=O)(=O)c2cccs2)Oc2c(NS(=O)(=O)c3ccc(F)cc3)cccc2C1=O	4	-0.34	0.8	7
Cc1noc(C)c1NC(=O)Nc1cccc2c1O[C@@H](CN(C)CC1CC1)[C@H](C)CN([C@H](C)CO)C2=O	-4	0.14	0.3	-6
CC1(C)CC[C@]2(C(=O)O[C@@H]3O[C@H](CO)[C@@H](O)[C@H](O)[C@H]3O)CC[C@]3(C)C(=CCC4[C@@]5(C)CC[C@H](O[C@@H]6OC[C@H](O)[C@H](O)[C@H]6O[C@@H]6O[C@H](CO)[C@@H](O)[C@H](O)[C@H]6O[C@@H]6OC[C@H](O)[C@H](O)[C@H]6O)[C@@](C)(CO)C5CC[C@]43C)C2C1 (stereo partly specified)	-9	0.13	0.2	-12
COc1ccc(S(=O)(=O)Nc2ccc3c(c2)CC(=O)N([C@@H](C)CO)C[C@H](C)[C@H](CN(C)C(=O)Nc2ccc(C(F)(F)F)cc2)O3)cc1	14	0.13	1.3	6
Cc1noc(C)c1S(=O)(=O)Nc1ccc2c(c1)C(=O)N([C@@H](C)CO)C[C@@H](C)[C@H](CN(C)C(=O)NC1CCCCC1)O2	.	0.11	1.4	-8
C[C@H]1CN([C@@H](C)CO)C(=O)Cc2cc(NC(=O)C3CC3)ccc2O[C@H]1CN(C)Cc1ccc(C(=O)O)cc1	28	0.21	1.1	-5
CC(C)(C)C1CCc2c(sc(NC(=O)COc3ccccc3Cl)c2C(N)=O)C1 (stereo unspecified)	.	.	-4.5	-15
CCOc1ccc(N=CNc2ccc(OCC)cc2)cc1	10	0.0015	-0.4	-21

Other records
SMILES	Shh pathway inh	YB-1 expr inh	PD-1 reversal	MITF inh
COc1ccc(NC(=O)Nc2ccc3c(c2)C(=O)N([C@H](C)CO)C[C@@H](C)[C@H](CN(C)S(=O)(=O)c2ccc(F)cc2)O3)cc1	.	-0.18	0.3	-32
C[C@@H]1CN([C@H](C)CO)C(=O)c2cc(NS(=O)(=O)c3ccc(F)cc3)ccc2O[C@H]1CN(C)Cc1ccccc1	.	0.46	1.2	2
O=C(Nc1cccc2ccccc12)C12CC3CC(CC(C3)C1)C2	-42	-0.058	0.1	-13
C[C@@H]1CN([C@@H](C)CO)C(=O)Cc2cc(NC(=O)Nc3ccccc3)ccc2O[C@@H]1CN(C)S(=O)(=O)c1cn(C)cn1	-20	-0.17	1.5	0
C[C@@H]1CN([C@H](C)CO)C(=O)c2cc(NC(=O)Cn3cnnn3)ccc2O[C@H]1CN(C)C(=O)Nc1ccc(F)cc1	.	-0.1	1.1	7
O=[N+]([O-])c1ccc(NCCCn2ccnc2)nc1	.	.	1.4	-14
C[C@@H]1CN([C@H](C)CO)C(=O)Cc2cc(NC(=O)Nc3ccc(C(F)(F)F)cc3)ccc2O[C@H]1CN(C)C(=O)Nc1ccccc1	.	-0.31	.	9
C=CCn1c(C(C)Oc2ccc(Cl)cc2Cl)n[nH]c1=S (stereo unspecified)	21	-0.22	-5.6	14
C[C@H]1CN([C@@H](C)CO)C(=O)Cc2cc(NC(=O)Nc3cccc4ccccc34)ccc2O[C@H]1CN(C)C(=O)Nc1ccccc1	.	0.076	-0.5	-19
C[C@H](CO)N1C[C@H](C)[C@@H](CN(C)Cc2ccc(C(F)(F)F)cc2)Oc2c(NC(=O)C3CC3)cccc2C1=O	23	0.12	.	-1
C[C@H]1CN([C@@H](C)CO)C(=O)Cc2cc(NS(=O)(=O)c3ccccc3)ccc2O[C@@H]1CN(C)S(=O)(=O)c1ccccc1	-29	0.14	.	-3
COC(=O)c1ccc(CSc2nnc(-c3ccccc3)o2)o1	.	.	1.8	-24
C[C@H]1CN([C@@H](C)CO)C(=O)c2cc(NC(=O)Cn3cnnn3)ccc2O[C@@H]1CN(C)Cc1ccc2c(c1)OCO2	.	-0.46	1.1	-6
C[C@@H]1CN([C@@H](C)CO)C(=O)Cc2cc(NC(=O)C3CCCCC3)ccc2O[C@@H]1CN(C)Cc1ccc(Cl)c(Cl)c1	.	-0.094	.	37
COc1ccc(S(=O)(=O)Nc2cccc3c2O[C@@H](CN(C)C(=O)Nc2ccc(F)cc2)[C@H](C)CN([C@H](C)CO)C3=O)cc1	26	-0.03	0.3	6
COc1cc2c(cc1NC(=O)Cc1ccccc1[N+](=O)[O-])oc1ccccc12	.	.	1.5	-52
Cc1ccc(S(=O)(=O)c2nc(-c3cccs3)oc2NCc2cccnc2)cc1	.	.	1.4	-19
CCOc1ccccc1NC(=O)CC1NCCNC1=O (stereo unspecified)	.	.	2.4	-10
C[C@H]1CN([C@@H](C)CO)C(=O)c2cc(NC(=O)Nc3ccc(C(F)(F)F)cc3)ccc2O[C@@H]1CN(C)C(=O)NC1CCCCC1	-41	-0.021	0.6	-2
C[C@H](CO)N1C[C@H](C)[C@H](CN(C)Cc2ccc(C(=O)Nc3ccccc3N)cc2)Oc2c(NC(=O)NC3CCCCC3)cccc2C1=O	.	-0.3	-1.4	14
C[C@@H]1CN([C@H](C)CO)C(=O)c2cccc(NC(=O)Nc3ccc(F)cc3)c2O[C@H]1CN(C)CC1CC1	-11	-0.1	.	27
CC(C)NC(=O)Nc1ccc2c(c1)CC(=O)N([C@H](C)CO)C[C@@H](C)[C@H](CN(C)C(=O)Nc1ccc(C(F)(F)F)cc1)O2	-11	-0.41	.	-5
Cc1ccc(S(=O)(=O)Nc2ccc3c(c2)CC(=O)N([C@H](C)CO)C[C@@H](C)[C@@H](CN(C)Cc2ccc4c(c2)OCO4)O3)cc1	3	0.16	1.8	-2
O=C(CSc1nnc(-c2ccc(Cl)cc2)o1)Nc1ccccc1	.	.	2.0	-89
CC(C)NC(=O)N(C)C[C@@H]1Oc2c(NC(=O)C3CCCCC3)cccc2C(=O)N([C@H](C)CO)C[C@H]1C	-18	-0.24	.	-1

Part of the list above, set out differently.
Below each compound: Shh pathway inh	YB-1 expr inh	PD-1 reversal	MITF inh
> C[C@@H]1CN([C@@H](C)CO)C(=O)Cc2cc(NC(=O)C3CCCCC3)ccc2O[C@@H]1CN(C)Cc1ccc(Cl)c(Cl)c1
  .	-0.094	.	37
> COc1ccc(S(=O)(=O)Nc2cccc3c2O[C@@H](CN(C)C(=O)Nc2ccc(F)cc2)[C@H](C)CN([C@H](C)CO)C3=O)cc1
  26	-0.03	0.3	6
> COc1cc2c(cc1NC(=O)Cc1ccccc1[N+](=O)[O-])oc1ccccc12
  .	.	1.5	-52
> Cc1ccc(S(=O)(=O)c2nc(-c3cccs3)oc2NCc2cccnc2)cc1
  .	.	1.4	-19
> CCOc1ccccc1NC(=O)CC1NCCNC1=O (stereo unspecified)
  .	.	2.4	-10
> C[C@H]1CN([C@@H](C)CO)C(=O)c2cc(NC(=O)Nc3ccc(C(F)(F)F)cc3)ccc2O[C@@H]1CN(C)C(=O)NC1CCCCC1
  -41	-0.021	0.6	-2
> C[C@H](CO)N1C[C@H](C)[C@H](CN(C)Cc2ccc(C(=O)Nc3ccccc3N)cc2)Oc2c(NC(=O)NC3CCCCC3)cccc2C1=O
  .	-0.3	-1.4	14
> C[C@@H]1CN([C@H](C)CO)C(=O)c2cccc(NC(=O)Nc3ccc(F)cc3)c2O[C@H]1CN(C)CC1CC1
  -11	-0.1	.	27
> CC(C)NC(=O)Nc1ccc2c(c1)CC(=O)N([C@H](C)CO)C[C@@H](C)[C@H](CN(C)C(=O)Nc1ccc(C(F)(F)F)cc1)O2
  -11	-0.41	.	-5

New compounds follow
SMILES	Shh pathway inh	YB-1 expr inh	PD-1 reversal	MITF inh
C[C@H]1CN([C@@H](C)CO)C(=O)c2cccc(NC(=O)C3CCOCC3)c2O[C@@H]1CN(C)Cc1ccc(Oc2ccccc2)cc1	-1	0.2	0.5	-1
Cc1noc(C)c1S(=O)(=O)Nc1ccc2c(c1)CC(=O)N([C@H](C)CO)C[C@@H](C)[C@@H](CN(C)CC1CC1)O2	-12	0.26	-0.4	5
CSc1sc(C(=O)O)c(C)c1S(=O)(=O)c1ccc(Cl)cc1	3	-0.34	0.7	4
COc1ccc(-c2ccc(=N)n(CCCC(=O)O)n2)cc1	-12	-0.16	.	-1
O=S(=O)(NCc1ccccn1)c1ccc(I)cc1	.	.	-0.2	-9
COc1ccc(OC)c(S(=O)(=O)Nc2ccc(C(=O)O)cc2)c1	.	.	1.9	-11
CCOC(=O)N1CCN(Cc2nc(N)nc(Nc3ccc(Oc4ccccc4)cc3)n2)CC1	.	.	-1.3	65
CC(C)NC(=O)N(C)C[C@@H]1Oc2c(NC(=O)Nc3ccc(F)cc3)cccc2C(=O)N([C@@H](C)CO)C[C@@H]1C	-6	0.083	-0.2	-9
COc1ccc(S(=O)(=O)N(C)C[C@@H]2Oc3ccc(NS(C)(=O)=O)cc3C(=O)N([C@@H](C)CO)C[C@H]2C)cc1	.	0.28	-0.3	2
Cc1ccc(S(=O)(=O)NCC(=O)Nc2ccc(Cl)cc2Cl)cc1	.	.	0.5	0
C[C@@H]1CCCCO[C@@H](CN(C)C(=O)NC2CCCCC2)[C@@H](C)CN([C@H](C)CO)C(=O)c2cc(NS(=O)(=O)c3ccc(Cl)cc3)ccc2O1	8	-0.29	-3.4	9
C[C@H](CO)N1C[C@H](C)[C@@H](CN(C)S(=O)(=O)c2ccc(F)cc2)Oc2c(NC(=O)Nc3ccccc3)cccc2C1=O	47	0.082	.	-6
CNC[C@H]1Oc2c(NC(=O)Nc3ccc(F)cc3)cccc2C(=O)N([C@H](C)CO)C[C@H]1C	-26	-0.39	0.4	0
Cc1ccccc1-n1nnnc1SCC(=O)Nc1cccc(Cl)c1Cl	.	.	-1.5	6
C[C@@H]1CCCCO[C@@H](CN(C)C(=O)NC2CCCCC2)[C@@H](C)CN([C@H](C)CO)C(=O)c2cc(NC(=O)CCCN(C)C)ccc2O1	-11	-0.091	.	-11
C[C@H]1CN([C@@H](C)CO)C(=O)c2cccc(NC(=O)Nc3ccc(C(F)(F)F)cc3)c2O[C@@H]1CN(C)C(=O)Nc1ccc(F)cc1	-8	-0.88	3.9	-11
COc1cccc2cc(-c3nnc(SCC(=O)Nc4cccc(SC)c4)n3C)oc12	.	.	-10	12
COc1ccc(CN(C)C[C@H]2Oc3ccc(NC(=O)NC4CCCCC4)cc3CC(=O)N([C@H](C)CO)C[C@H]2C)cc1	-10	-0.16	.	-10
C[C@H](CO)N1C[C@H](C)[C@@H](CN(C)C(=O)NC2CCCCC2)Oc2c(NS(=O)(=O)c3cn(C)cn3)cccc2C1=O	-8	0.36	0.5	7

Compound activity deposited in PubChem by Broad Institute.

An excerpt (hit frequency here may not be typical).
